Mtb MenB inh: Mtb MenB enzyme inhibition; P9WNP5; MenB enzyme assay, absorbance read-out; some hits fall short of the stated cut; inhibition, %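 (about 12 µg/mL by stock and volumes)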; actives 0.43% (n = 100,000);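 active = mean of two replicates above 30%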;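 note: 0% = no compound and 100% = wells with inactive enzyme; the first replicate is given; strong numbers were not always called active; inactives centre near -10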
Target sequence (P9WNP5 whole entry, looked up): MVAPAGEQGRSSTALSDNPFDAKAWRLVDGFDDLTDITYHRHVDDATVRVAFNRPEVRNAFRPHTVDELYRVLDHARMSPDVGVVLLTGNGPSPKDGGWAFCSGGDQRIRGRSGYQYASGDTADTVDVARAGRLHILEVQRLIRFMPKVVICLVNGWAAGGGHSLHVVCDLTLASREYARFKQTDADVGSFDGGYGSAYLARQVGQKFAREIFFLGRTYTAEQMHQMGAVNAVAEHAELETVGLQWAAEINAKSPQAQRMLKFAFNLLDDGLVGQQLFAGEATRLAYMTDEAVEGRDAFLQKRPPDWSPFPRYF
Mtb MbtI inh: blocks the Mycobacterium tuberculosis siderophore enzyme MbtI | P9WFX0 | purified MbtI enzyme, fluorescence intensity read-out | inhibition, %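 (about 17 µg/mL by stock and volumes)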 | actives 0.89% (n = 100,000) | AID 493033;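 active = above 50% in both replicates, above 80% if mildly self-fluorescent; inactive = the rest, strongly fluorescent compounds included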;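 note: 0% = mean of negative and 100% = mean of positive controls; one replicate is shown; some compounds called inactive have numbers as strong as hits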
Target sequence (P9WFX0 whole entry, looked up): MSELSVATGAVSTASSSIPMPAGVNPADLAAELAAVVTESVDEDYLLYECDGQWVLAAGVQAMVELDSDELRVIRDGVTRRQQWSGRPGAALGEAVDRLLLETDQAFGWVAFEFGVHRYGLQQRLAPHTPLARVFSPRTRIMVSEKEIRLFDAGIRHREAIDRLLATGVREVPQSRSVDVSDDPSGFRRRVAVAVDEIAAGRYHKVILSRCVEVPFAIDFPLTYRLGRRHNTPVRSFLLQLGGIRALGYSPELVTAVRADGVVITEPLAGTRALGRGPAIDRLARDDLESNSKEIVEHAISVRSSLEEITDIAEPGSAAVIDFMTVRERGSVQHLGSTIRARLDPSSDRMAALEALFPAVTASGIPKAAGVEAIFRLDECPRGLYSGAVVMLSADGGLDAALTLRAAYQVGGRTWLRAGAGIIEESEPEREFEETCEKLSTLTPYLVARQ
* hit, by the source's call; nt = no result given. Only part of the results is shown; the hit share may differ from the screen's.

SMILES	Mtb MenB inh	Mtb MbtI inh
Nc1ccc(-c2nnc(-c3ccco3)o2)cc1	nt	-495
CCOC(=O)N1CCC(c2[nH][nH]c(=O)c2C)CC1	nt	-7
CC(=O)Nc1ccc2c(c1)nc(C)n2Cc1ccccc1	nt	-13
CCOc1ccc(/C=C\C(C)=N\O)cc1	nt	11
COCC(C)NCc1c(F)cccc1F (centres undefined)	nt	2
CCc1ccc(NC(=O)C2CCC(=O)N(c3ccc(OC)cc3)C2c2ccc(OC)cc2)cc1 (centres undefined)	nt	3
Cn1c(O)c(C(=O)c2ccccc2)c(=O)n(C)c1=O	nt	-4
COC(=O)CCC(=O)N1CCc2ccccc21	nt	-15
CCc1ccc2cc(CNC3CCCCC3)c(=O)[nH]c2c1	nt	-51
O=c1oc(-c2ccccc2)nc2ccccc12	nt	6
Cc1cccc(OCCCn2ccnc2)c1	nt	0
CCS(=O)(=O)N1CCC(C(=O)OCC(=O)c2ccc(Br)cc2)CC1	nt	-8
CCN(CC)c1ccc(C(=O)OCC(=O)c2ccccc2)cc1	nt	1
O=C(c1ccncc1)N(Cc1ccccc1)Cc1ccccc1	nt	1
O=C(CSCc1ccccc1Cl)NCc1cccs1	nt	-15
CCc1nc2sc3c(SCC(N)=O)ncnc3c2c2c1CCCC2	nt	0
CCSc1nc2c([nH]1)c(=N)ncn2Cc1ccccc1	nt	14
Nc1nnc(CCC(=O)O)c(=O)[nH]1	nt	-10
CCOc1cc(CNCc2cccnc2)cc(Cl)c1OCc1cccs1	nt	-4
CC(=O)N1CC(=O)c2ccccc21	nt	187
O=C1NC(=O)C(Nc2ccccc2)S1 (centres undefined)	nt	-19
O=C(Cc1cccs1)NCc1ccccc1Br	nt	-11
N#CC1=C(NC(=O)c2cc3ccccc3oc2=O)CCC1	nt	-1
COc1ccc(OC)c(NC(=O)C(C(C)C)N2C(=O)c3ccccc3C2=O)c1 (centres undefined)	nt	-2

Part of the list above in a different format.
| canonical_smiles | Mtb MenB inh | Mtb MbtI inh |
| --- | --- | --- |
| CCN(CC)c1ccc(C(=O)OCC(=O)c2ccccc2)cc1 | nt | 1 |
| O=C(c1ccncc1)N(Cc1ccccc1)Cc1ccccc1 | nt | 1 |
| O=C(Cc1cccs1)NCc1ccccc1Br | nt | -11 |
| O=C(CSCc1ccccc1Cl)NCc1cccs1 | nt | -15 |

More records follow.
SMILES	Mtb MenB inh	Mtb MbtI inh
CC(C)(C)OC(=O)N1CCC(c2c(C(=O)O)cnn2-c2ccccc2)CC1	nt	-10
COc1ccc(-c2c(-c3ccccc3)oc3ncnc(C)c23)cc1	nt	89
CCC(Sc1nc(C)cc(=O)[nH]1)C(=O)Nc1ccccc1OC (centres undefined)	nt	4
COC(=O)C1=C(N)Oc2cc(N(C)C)ccc2C1c1ccccc1OC (centres undefined)	nt	-2
CC1CN(C(=O)Cc2cccs2)CC(C)O1 (centres undefined)	nt	-3
Cc1cccc(CCNC(=S)Nc2ccc3nc4n(c(=O)c3c2)CCCCC4)c1	nt	0
COc1ccc2[nH]cc(CCSC(=N)N)c2c1	nt	2
Cc1ccc(C(=O)COc2ccc(-c3cnc4ccccc4n3)cc2)cc1	nt	18
COC(=O)N(C)CCCC1(C)C(=O)N(C)c2ccc(O)cc21 (centres undefined)	nt	-2
NC1=NC(=O)C(CC(=O)c2ccc(Cl)cc2)S1 (centres undefined)	nt	26
CCN(CC)CCOc1c(Br)ccc2c1sc1nc3n(c(=O)c12)CCC3	nt	-16
COC(=O)Nc1ccc(Cl)cn1	nt	-8

35 entries out of the list, sorted by molar mass, descending.
SMILES	Mtb MenB inh	Mtb MbtI inh
CCc1ccc(NC(=O)C2CCC(=O)N(c3ccc(OC)cc3)C2c2ccc(OC)cc2)cc1 (centres undefined)	nt	3
CCN(CC)CCOc1c(Br)ccc2c1sc1nc3n(c(=O)c12)CCC3	nt	-16
CCS(=O)(=O)N1CCC(C(=O)OCC(=O)c2ccc(Br)cc2)CC1	nt	-8
Cc1cccc(CCNC(=S)Nc2ccc3nc4n(c(=O)c3c2)CCCCC4)c1	nt	0
CCOc1cc(CNCc2cccnc2)cc(Cl)c1OCc1cccs1	nt	-4
COc1ccc(OC)c(NC(=O)C(C(C)C)N2C(=O)c3ccccc3C2=O)c1 (centres undefined)	nt	-2
CC(C)(C)OC(=O)N1CCC(c2c(C(=O)O)cnn2-c2ccccc2)CC1	nt	-10
CCc1nc2sc3c(SCC(N)=O)ncnc3c2c2c1CCCC2	nt	0
COC(=O)C1=C(N)Oc2cc(N(C)C)ccc2C1c1ccccc1OC (centres undefined)	nt	-2
CCC(Sc1nc(C)cc(=O)[nH]1)C(=O)Nc1ccccc1OC (centres undefined)	nt	4
COc1ccc(-c2c(-c3ccccc3)oc3ncnc(C)c23)cc1	nt	89
O=C(CSCc1ccccc1Cl)NCc1cccs1	nt	-15
CCN(CC)c1ccc(C(=O)OCC(=O)c2ccccc2)cc1	nt	1
O=C(Cc1cccs1)NCc1ccccc1Br	nt	-11
COC(=O)N(C)CCCC1(C)C(=O)N(C)c2ccc(O)cc21 (centres undefined)	nt	-2
O=C(c1ccncc1)N(Cc1ccccc1)Cc1ccccc1	nt	1
CCSc1nc2c([nH]1)c(=N)ncn2Cc1ccccc1	nt	14
CCc1ccc2cc(CNC3CCCCC3)c(=O)[nH]c2c1	nt	-51
N#CC1=C(NC(=O)c2cc3ccccc3oc2=O)CCC1	nt	-1
CC(=O)Nc1ccc2c(c1)nc(C)n2Cc1ccccc1	nt	-13
NC1=NC(=O)C(CC(=O)c2ccc(Cl)cc2)S1 (centres undefined)	nt	26
Cn1c(O)c(C(=O)c2ccccc2)c(=O)n(C)c1=O	nt	-4
CCOC(=O)N1CCC(c2[nH][nH]c(=O)c2C)CC1	nt	-7
COc1ccc2[nH]cc(CCSC(=N)N)c2c1	nt	2
CC1CN(C(=O)Cc2cccs2)CC(C)O1 (centres undefined)	nt	-3
COC(=O)CCC(=O)N1CCc2ccccc21	nt	-15
Nc1ccc(-c2nnc(-c3ccco3)o2)cc1	nt	-495
O=c1oc(-c2ccccc2)nc2ccccc12	nt	6
Cc1cccc(OCCCn2ccnc2)c1	nt	0
COCC(C)NCc1c(F)cccc1F (centres undefined)	nt	2
O=C1NC(=O)C(Nc2ccccc2)S1 (centres undefined)	nt	-19
CCOc1ccc(/C=C\C(C)=N\O)cc1	nt	11
COC(=O)Nc1ccc(Cl)cn1	nt	-8
Nc1nnc(CCC(=O)O)c(=O)[nH]1	nt	-10
CC(=O)N1CC(=O)c2ccccc21	nt	187

Other compounds
SMILES	Mtb MenB inh	Mtb MbtI inh
COc1cccc(OC)c1C(=O)NCc1ccco1	nt	-6
CC(CN1CCCC1)OC(=O)c1cccc(Br)c1 (centres undefined)	nt	-12
CCOC(=O)c1[nH]nc(C(=O)c2ccc(Br)cc2)c1O	nt	-10
CC(=O)N(Cc1ccco1)C1(C(=O)NC2CCCC2)CCCCC1	nt	-4
COc1ccc(-c2nn[nH]n2)cc1OC	nt	-5
O=C(c1ccc(COc2ccc(F)cc2)o1)n1cccn1	nt	-6
OCCN1CCN(CC#CCC(c2ccccc2)c2ccccc2)CC1	nt	4
CCc1nn(-c2cc(Cl)ccc2OC)c2c1C(=O)CCC2	nt	-4
CCOC(=O)c1sc(C)c2c(=O)[nH]nnc12	nt	36
O=C(O)CCc1c(C(=O)O)[nH]c2ccccc12	nt	-25
CC1CN(C2CCCCC2)CCC1=O (centres undefined)	nt	-4
CN(C)c1nc2c(c(=O)[nH]c(=O)n2C)n1Cc1ccc(Cl)cc1	nt	-12
CCCOc1ccc(CNC(=O)Cc2cccs2)cc1	nt	-12
Cc1cc(Nc2ccccc2C(=O)O)nc2nc3ccccc3c(=O)n12	nt	4
CCC(C)(NC(C)=O)C(=O)NC1CCCC1 (centres undefined)	nt	-10
N#Cc1c(N)oc(-c2ccccc2)c1-c1ccccc1	nt	18
CCCOC(=O)CSc1n[nH]c(=O)[nH]c1=O	nt	-6
O=c1[nH]c2ccccc2n1CCCCl	nt	-8
COC(=O)c1sc(C(=O)OC)c(O)c1O	nt	-42
COc1ccc(C(=O)c2coc3ccc(OC(C)=O)cc23)cc1	nt	-14
O=C1CC(C(=O)Nc2ccc(C(=O)O)c(O)c2)C(c2ccccc2)O1 (centres undefined)	nt	14
CC1(C)C2CCC1(CS(=O)(=O)Nc1ccc(Cl)cc1)C(=O)C2 (centres undefined)	nt	2
O=C(O)c1ccc(-c2cc3ccccc3oc2=O)cc1	nt	54
Cc1cc(C)c2c(=O)[nH]n(C3CC(C)N(C)CC3C)c2n1 (centres undefined)	nt	-11
Cc1nn(C)c(C)c1NS(=O)(=O)c1ccccc1	nt	-7
OC1(C#CCN2CCCC[C@H]2c2cccnc2)CCCCC1	nt	4
CCOC(=O)CSc1cc(=O)n(CC)c2ccccc12	nt	10
CCOC(=O)C1SCCN1c1ccc(C)cc1 (centres undefined)	nt	2
CN(C)CCn1c(C(=O)O)cc2ccccc21	nt	-9
CCOC(=O)c1c(CN(CC)CC)n(C)c2cc(Br)c(OC)cc12	nt	-10
Cn1c(=N)n(CCO)c2ccccc21	nt	-9
CC(CN1CCCCC1)OC(=O)c1ccc2c(c1)OCCO2 (centres undefined)	nt	7
Cc1nnnn1CC(=O)Nc1ccccc1	nt	2
CC1CCC(C(=O)N2CCCC2C(=O)O)CC1 (centres undefined)	nt	-7
COC(=O)c1c(OC)cc(C)nc1C	nt	-5
Cc1[nH]c2ccccc2c1CCn1c(N)cc(=O)[nH]c1=O	nt	-13
CC(C)C1CC(O)(C2(O)CCCCC2)ON1 (centres undefined)	nt	-4
CCc1ccccc1NC(=O)C(CC)n1nc(-c2ccc(OC)cc2)ccc1=O (centres undefined)	nt	-4
COCSc1ccc(C(=O)OCC(=O)c2ccc(Br)cc2)cc1	nt	-1
CN(C)S(=O)(=O)c1cc(C(=O)O)c(N2CCOCC2)cc1Cl	nt	-9
CCOC(=O)c1nnn(-c2nonc2-n2cccc2)c1CN1CCOCC1	nt	-10
CCC(=O)Nc1ccc2nn(-c3ccc(OC)cc3)nc2c1	nt	-180
COC(=O)c1cn(NC(=O)CCC2CCCC2)c(=O)c2ccccc12	nt	-12
CCSc1nc(N)c(C#N)c(CC)c1C#N	nt	-56
O=C(O)CCS(=O)(=O)c1ccc2[nH]c(=O)oc2c1	nt	-6
Nc1nnnn1CC(=O)OCC(=O)c1ccccc1	nt	1
Nc1ccc(C(=O)OCN2C(=O)c3ccccc3C2=O)cc1	nt	-12
CCOC(=O)NC(C)C1CC2CCC1C2 (centres undefined)	nt	-3
CN(C)c1nc(Nc2ccc(F)cc2)nc(-n2cccn2)n1	nt	2
CCN1CCCC1CNC(=O)C1c2ccccc2C(=O)N(CCOC)C1c1ccc(F)cc1 (centres undefined)	nt	-9
O=C(O)CCSc1nnnn1C1CCCCC1	nt	-13
CC1CCCN(Cc2c(O)ccc3cc(-c4nc5ccccc5[nH]4)c(=O)oc23)C1 (centres undefined)	nt	1
COc1ccccc1Cn1cnc2cccnc21	nt	-14
O=C(NCCO)C1=Cc2ccccc2OC1	nt	-3
CC(O)Cn1c(=N)n(Cc2ccccc2)c2ccccc21 (centres undefined)	nt	-11
CCC(Sc1nc2c(c(=O)[nH]1)CCCC2)C(=O)Nc1ccccc1OC (centres undefined)	nt	37
Cc1cc(C)cc(NC(=O)C/C(N)=N/O)c1	nt	-6
O=C(CSc1nc2ccccc2o1)NC(=O)CSc1nc2ccccc2o1	nt	0
O=C(CC1OCCN(Cc2ccccc2)C1=O)Nc1cccc(Cl)c1 (centres undefined)	nt	4
O=C(/C=N/O)Nc1ccccc1	nt	-1

Later entries:
SMILES	Mtb MenB inh	Mtb MbtI inh
CCOc1cc2c(cc1OCC)-n1cccc1C(c1ccccc1O)NC2 (centres undefined)	nt	9
COc1ccc(C2(CNC(=O)Cc3ccc(OC)c(OC)c3)CCOCC2)cc1	nt	-8
O=c1c2ccccc2nc2ccc(NC3CCCCC3)nn12	nt	-5
C=CCC1(NCc2ccco2)CCN(C)CC1	nt	-13
O=C(OCCN1CCCCC1)c1ccc2c(c1)OCO2	nt	10
C=C=CSc1nnnn1-c1ccc(Cl)cc1	nt	-7
COc1ccc(C(=O)OC2CC3CCC(C2)N3)cc1OC (centres undefined)	nt	-2
CCOC(=O)C1CCN(c2nc3ccccc3o2)CC1	nt	-14
CS(=O)(=O)N1CCN(CC(O)Cn2c3ccccc3c3ccccc32)CC1 (centres undefined)	nt	-35
Cc1[nH]c2ccccc2c(=O)c1CN1CCCC1	nt	-3
c1cc(N2CCOCC2)nnc1N1CCOCC1	nt	-26
CCOC(=O)c1c2n(c3ccc(O)cc13)CCC2	nt	-19
COc1ccc(OC)c(S(=O)(=O)N2CCc3ccccc32)c1	nt	15
Cc1ccc(C(=O)Nc2nonc2C)cc1	nt	0
CC1(C)CC(NC(=O)c2scc3c2OCCO3)CC(C)(C)N1	nt	-14
O=C(O)CCC(=O)OC1N=C(c2ccccc2Cl)c2cc(Br)ccc2NC1=O (centres undefined)	nt	-6
O=c1[nH]c2cccnc2n1Cc1ccco1	nt	-3
CCc1ccc2c(c1)c1nc(C)sc1n2C	nt	15
Cc1ccc2nc(Nc3ccccc3)cc(C)c2c1	-7	nt
CCOC(=O)C1(C(=O)OCC)C(c2ccccc2)CC(=O)CC1c1ccccc1 (centres undefined)	1	nt
